Screens deposited in PubChem by several laboratories.
MT1-MMP act inh: blockers of MT1-MMP proenzyme processing, primary screen, HT1080 RFP-PRO-GFP cells, GFP/RFP fluorescence; AID 651647, 2012; 360,000 tested, 0.061% active; GFP/RFP ratio fluorescence, overnight; percent of plate control window, DMSO zero; GFP/RFP ratio change, % at 20 µM; Matrix metalloproteinase-14 (Homo sapiens), P50281;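 active = GFP/RFP ratio change of at least 30% with cell ATP level not reduced by more than half and red fluorescence within 50% of control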; also: strong numbers were not always called active
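system = RFP-PRO-GFP reporter HT1080 cells | dosing = 20 µM single dose, 1% DMSO | timing = overnight cell settling, then overnight compound exposure, 37 °C, 5% CO2 | read-out basis = GFP/RFP fluorescence ratio | controls = DMSO and RFP-L50D-GFP cell wells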
CSC inhib: cancer stem cell viability inhibitors, primary screen, luminescence | inhibition, % at 7.5 µM | cancer stem cell-like cells viability | 300,000 tested, 1.1% active;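 active = mean at 75% or more and at least half the replicates too; inconclusive = mean and replicates disagree; tested in HMLE shEcad cells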;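 also: 0% = median of negative and 100% = median of positive control wells; the first replicate is given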
PABP polyA inh: PABP poly(A) RNA binding inhibitors, primary screen, biochemical, fluorescence polarization, uHTS. AID 2014, 2009. 290,000 tested, 1% active. Polyadenylate-binding protein 1 (Homo sapiens), P11940. inhibition, % at 35 µM;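 active = 50% or more with normal probe brightness, or confirmed in later tests; inconclusive = above 50% with abnormal brightness, or retests that disagree; inactive = below 50% or failed in later tests; about a fifth of its hits are not listed in these tables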;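 also: calls also rest on retests at 20 µM and on dose response follow-up; controls were probe without protein and protein plus probe with vehicle; some compounds called inactive have numbers as strong as hits; many hits fall short of the cut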
HIV Env fusion: inhibitors of HIV-1 Env-driven cell-cell fusion, primary screen, HeLa-JRFL effector, CEM21 target cells, luciferase; inhibition, % at 12.3 µM; 360,000 tested, 1.1% active;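 active = mean replicate inhibition score of at least 50 and every replicate individually at or above 50; inconclusive = only one of the two criteria met; inactive = mean below 50 and not all replicates reaching 50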;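 also: 0% = plate neutral controls and 100% = maraviroc near 300 nM; one replicate is shown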
Yeast UUG start: modulators of yeast start codon fidelity, primary screen, whole organism, S. cerevisiae, single point, plate reader; S. cerevisiae UUG-firefly luciferase reporter, luminescence/redox ratio; activity score, % at 18.7 µM; 350,000 tested, 0.13% active;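 active = replicate mean at a twofold rise or more, about +100% in these data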;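 also: firefly luciferase made from a UUG start codon reports start codon fidelity; reporter light over untreated wells divided by growth signal over untreated wells; some hits fall short of that in this replicate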
Rce1 inh: yeast Rce1p protease inhibitors, primary screen, biochemical, fluorescence, cell-free homogeneous; CAAX prenyl protease 2 (Saccharomyces cerevisiae (strain ATCC 204508 / S288c)), Q03530; yeast membranes, quenched prenylated peptide cleavage fluorescence; calls only; 290,000 tested, 0.27% active; AID 2563, 2010;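 active = fall in fluorescence gain of 50% or more versus controls, with final raw signal at or below 3038400; inconclusive = same 50% fall but final raw signal above 3038400; inactive = fall in fluorescence gain under 50%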;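 also: plate controls were neutral control wells for no effect and wells lacking membranes for full effect; tested at 10 µM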
Target sequence (Q03530 whole entry, looked up): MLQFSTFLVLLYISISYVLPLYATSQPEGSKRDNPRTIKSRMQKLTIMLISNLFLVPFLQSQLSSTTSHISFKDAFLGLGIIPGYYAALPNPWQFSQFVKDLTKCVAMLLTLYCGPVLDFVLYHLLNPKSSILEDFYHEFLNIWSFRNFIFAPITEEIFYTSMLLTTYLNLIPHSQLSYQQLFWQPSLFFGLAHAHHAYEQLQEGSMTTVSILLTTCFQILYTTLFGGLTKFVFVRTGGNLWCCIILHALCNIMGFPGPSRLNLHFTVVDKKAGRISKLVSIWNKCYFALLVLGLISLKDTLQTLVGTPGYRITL
eIF4H FP inh: human eIF4H binding inhibitors, primary screen, translation initiation inhibitor project, biochemical, uHTS, fluorescence polarization; Eukaryotic translation initiation factor 4H (Homo sapiens), Q15056; 290,000 tested, 0.94% active; AID 2012, 2009; inhibition, % at 35 µM; eIF4H fluorescence polarization binding assay;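 active = 50% or more with normal probe brightness, or confirmed in later tests; inconclusive = above 50% with abnormal brightness, or retests that disagree; inactive = below 50% or failed in later tests; about a fifth of its hits are not listed in these tables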;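 also: calls also rest on retests at 20 µM and on dose response follow-up; 0% = protein and probe with vehicle and 100% = probe without protein; strong numbers were not always called active; many hits fall short of the cut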
eIF4H FP inh retest: recorded beside eIF4H FP inh, whose call it bears; inhibition, %; compound at 20 µM; confirmation average;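 mean of two retest wells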
PABP polyA inh retest: also measured in PABP polyA inh; calls as there; inhibition, %; compound at 20 µM; confirmation repeats;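 mean of two retest wells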
MT1-MMP act inh RFP: also measured in MT1-MMP act inh; calls as there; RFP signal change, %; measured here: RFP expression control read;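 0 = vehicle wells; hits needed this value within 50% of zero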
An asterisk follows results filed as active; i = inactive; u = inconclusive; x = no result given; + = active, no number. A portion of the library (hit frequency here may not be typical).

SMILES | MT1-MMP act inh | MT1-MMP act inh RFP | CSC inhib | PABP polyA inh | HIV Env fusion | Yeast UUG start | Rce1 inh | eIF4H FP inh | others
Cc1nc2nc(CNC(=O)OC(C)(C)C)nn2c(C)c1CCC(=O)Nc1ccc2c(c1)OCO2 | 0 | 1 | -10 | 12 | 4 | 6 | i | 0
COC(=O)[C@]1(Cc2ccccc2)N[C@H](CN(C)C(=O)C2CCCCC2)[C@@H]2C(=O)N(C)C(=O)[C@@H]21 | 1 | 6 | x | x | -47 | -10 | x | x
S=c1[nH]nc(COc2ccccc2)n1C1CCCCC1 | -2 | -6 | -16 | -13 | x | -19 | i | -7
O=C(c1ccccc1)c1ccccc1C(=O)N1CCN(C(=O)c2ccccc2)CC1 | 2 | 5 | -14 | -16 | -2 | x | i | 9
COc1ccc(S(=O)(=O)Nc2c(C(=O)O)[nH]c3ccccc23)cc1OC | 1 | 6 | 5 | 5 | 15 | x | i | 2
O=C(CSc1ccc(Cl)cc1)Nc1ccc(N2CCN(C(=O)c3ccc(Cl)cc3)CC2)cc1 | 5 | -3 | -2 | 5 | -15 | -20 | i | 3
COc1cc(NC(=O)Cc2nn(C)c(=O)c3ccccc23)cc(OC)c1OC | 6 | -5 | -4 | -16 | x | 3 | i | 0
COC(=O)Cc1ccc2c3ccccc3n(C)c2c1 | 3 | 2 | 9 | -2 | x | -4 | i | 0
CCOc1ccc2nc(NCCNC(=S)NCCCN(C)C)c(C#N)cc2c1 | -3 | 3 | 2 | 41 | 17 | x | i | 26
CCO[C@@H]1OC(C(=O)N2CCN(Cc3ccc4c(c3)OCO4)CC2)=C[C@H](C2CC2)[C@H]1CCCO | 0 | -1 | -1 | -7 | 5 | -2 | i | -2
Cc1c(CCC(=O)O)c(=O)oc2cc3occ(-c4ccc(Br)cc4)c3cc12 | 0 | -1 | -5 | 24 | -1 | -1 | i | 17
O=C(NCc1ccccn1)C1CCCCC1 | -1 | 1 | 5 | 16 | -6 | -17 | i | -4
CCn1c(Cl)c(C=O)s/c1=N\S(=O)(=O)c1ccccc1 | 19 | 11 | u | -8 | -43 | -4 | i | -6
CC(=O)Nc1ccc2nc(NS(=O)(=O)c3ccc(C)cc3)sc2c1 | 2 | 1 | -6 | 11 | -7 | x | i | -13
COC(=O)CCc1nc2ccccc2nc1OC | 3 | 4 | -14 | 10 | 12 | x | i | -3
COc1cccc(NC(=O)Cn2c(=O)n(CCC(=O)NCc3ccco3)c(=O)c3ccccc32)c1 | -2 | 0 | -27 | 5 | -8 | x | i | 13
Cc1ccc(/C=N/Nc2nnc(Cc3ccccc3)c(=O)[nH]2)o1 | 3 | 1 | 9 | 6 | -22 | x | i | 5
COc1ccc(CNC(=O)C(c2ccco2)N(C(=O)c2ccccn2)c2ccccc2)cc1 (stereo not drawn) | 2 | 4 | x | 9 | 6 | x | i | -3
O=S(=O)(NC1CCCCCC1)c1ccc(Br)s1 | -4 | -3 | -17 | -12 | -25 | 9 | i | 2
c1ccc(COc2ncnc3c2ncn3CCCNCc2cccs2)cc1 | 3 | 2 | x | x | 6 | -15 | x | x
COc1ccc(NC(=O)N(CCCN(C)C)Cc2cc3cc(OC)ccc3[nH]c2=O)cc1 | -1 | 3 | -6 | 8 | -29 | 9 | i | 5
Cn1c(N)c(C(=O)COC(=O)Cc2ccc(Br)cc2)c(=O)n(C)c1=O | -5 | -1 | 1 | x | -40 | -7 | x | x
CC(=C1C(=O)c2ccccc2C1=O)N1CCN(C/C=C/c2ccccc2)CC1 | -3 | 3 | 5 | -5 | -10 | x | i | -14
NC(=O)NN=C1CCN2CCCc3cccc1c32 | -2 | 2 | x | x | 11 | -12 | x | x
O=C(Nc1nc(-c2cccc3ccccc23)cs1)c1ccc2c(c1)S(=O)(=O)c1ccccc1C2=O | -11 | -6 | u | -3 | -24 | -8 | i | 2
COc1ccc(CCNC(=O)Cn2c(=O)n(Cc3ccco3)c(=O)c3ccc(Cl)cc32)cc1OC | 1 | 1 | x | 10 | x | -17 | i | -7
O=C(NCCc1ccccc1)C1CCN(S(=O)(=O)c2cccs2)CC1 | 1 | 1 | -4 | -6 | x | -32 | i | -7
CC(=O)Oc1ccccc1C(=O)C=Cc1cccc([N+](=O)[O-])c1 | 12 | -10 | x | x | -247 | -23 | x | x
COc1cc(C2OCC3C(c4ccc(OC5OC(CO)C(O)C(O)C5O)c(OC)c4)OCC23)ccc1O (stereo not drawn) | 7 | 7 | -9 | 2 | x | -10 | i | 13
O=C(CSc1ccc(Cl)cc1)NCc1ccco1 | 4 | 5 | -8 | 2 | -3 | x | i | -2
CC(C)(C)CC(C)(C)NCC(O)COCCOc1ccc(Br)cc1 (stereo not drawn) | -9 | -7 | 59 | -6 | 15 | x | i | 11
CCC(=O)N(Cc1ccc(C)cc1)Cc1cc2cc3c(cc2[nH]c1=O)OCO3 | 1 | 3 | -4 | 8 | x | 4 | i | -10
O=C1CN=C(Nc2ccccc2Cl)N1c1ccccc1 | -1 | -1 | 18 | 6 | x | -7 | i | 1
CCOc1ccc(NC(=O)CCN2CCN(S(=O)(=O)c3ccc(OC)cc3)CC2)cc1 | 7 | -7 | -9 | 2 | x | -26 | i | -14
COCC(=O)Nc1cc(C)cn(Cc2ccccc2Cl)c1=O | -2 | 1 | -13 | 3 | 11 | -2 | i | 11
Fc1ccc(N2N=C(c3cccs3)CC2c2ccco2)c(F)c1 (stereo not drawn) | -4 | -7 | x | -3 | 56* | -2 | i | -5
CCOc1ccc(NC(=O)CSc2ccc(-c3ccco3)nn2)cc1 | 0 | -2 | -1 | 9 | 13 | -2 | i | -2
CCC1S/C(=C(\C#N)C(N)=O)N(c2ccc(F)cc2)C1=O (stereo not drawn) | 0 | 2 | 13 | 4 | x | -26 | i | -3
Cc1ccc(C(=O)N2CCN(c3cnn(C)c(=O)c3Cl)CC2)cc1 | 5 | 3 | 2 | 6 | -6 | x | i | -2
C=CCn1c(C)cc(-c2csc(NC)n2)c1C | -9 | 9 | x | 7 | 9 | 1 | x | u
COc1ccc(N(C(C)=O)S(=O)(=O)c2cccs2)cc1 | -8 | -5 | -4 | -8 | x | -10 | i | 5
Cc1cccc(C)c1NC(=O)N1CCCC1C(=O)Nc1ccc(-n2cnnn2)cc1 (stereo not drawn) | 2 | 3 | -5 | 12 | -3 | -10 | i | 6
COc1cc(SC#N)ccc1N=Cc1c(C)[nH]n(-c2cccc3ccccc23)c1=O | x | x | -1 | 20 | x | x | i | 9
N#Cc1ccsc1NC(=O)c1cccc(-n2cnnn2)c1 | -1 | 4 | 18 | 38* | -31 | -26 | i | 67 | eIF4H FP inh retest=44;PABP polyA inh retest=106*
NC(=O)c1nc2c([nH]c1=O)CCCC2 | -1 | 1 | x | x | -22 | -27 | x | x
O=C(O)C1CCCN1c1nc(Cl)ccc1[N+](=O)[O-] (stereo not drawn) | 0 | 7 | x | x | -5 | 4 | x | x
Cc1ccc(NC(=O)CC2S/C(=N/N=C/c3c[nH]c4ccccc34)NC2=O)cc1 (stereo not drawn) | -4 | -2 | 3 | -10 | -11 | -12 | i | 0
CC1=C(C(=O)Nc2ccc(F)cc2)C(c2ccncc2)C2=C(CCCC2=O)N1 (stereo not drawn) | 3 | 2 | 15 | -15 | -27 | -6 | i | 3
COc1ccc(C(C)NC(=S)NCc2ccc(F)cc2)cc1 (stereo not drawn) | 2 | 0 | 6 | -6 | -10 | -12 | i | -2
C=CCOc1ccc(NC(=O)C2CC(=O)N(C(C)C)C2)cc1 (stereo not drawn) | 1 | 8 | x | 8 | -121 | 0 | i | -4
CCCC(C)C(=O)Nc1nc(C)c(-c2csc(Nc3cc(OC)ccc3OC)n2)s1 (stereo not drawn) | -3 | -6 | 0 | 2 | 11 | -7 | i | -3
COc1cc(CN2CCCC(N3CCN(c4ccc(F)cc4)CC3)C2)ccc1F (stereo not drawn) | 2 | 1 | 19 | 9 | 6 | 5 | i | 2
O=C(Cc1cccs1)NCCS(=O)(=O)N1CCN(c2ccccc2)CC1 | -5 | 1 | x | x | -7 | -12 | x | x
Cc1cc(C)n2nc(C(=O)N3CCCC(CNS(=O)(=O)c4cccs4)C3)cc2n1 (stereo not drawn) | 2 | 5 | -16 | -5 | -2 | x | i | -5
O=C1c2cccc3cccc(c23)C(=O)N1CCc1ccccc1 | -5 | 1 | -4 | -15 | -4 | x | i | 2
O=C(NCCc1ccccc1)c1cccc(S(=O)(=O)N2CCCCC2)c1 | 5 | -2 | -6 | 0 | -16 | 0 | i | -7
O=C(COc1ccccc1F)N/N=C1\CCCc2ccccc21 | 13 | 8 | 1 | -4 | x | 3 | i | 6
COc1ccc(CNC(=O)CN2CCN(C(c3ccccc3)c3ccccc3)CC2)cc1 | 0 | -3 | -9 | 12 | -14 | x | i | 3
O=C(COC(=O)/C=C/c1ccccc1)NCCC1=CCCCC1 | 2 | 6 | 2 | 5 | -6 | -12 | i | -5
O=C(CSc1nnc(-c2ccco2)o1)N1c2ccccc2CCc2ccccc21 | -10 | -14 | -9 | -1 | x | x | i | -7
Other records
SMILES | MT1-MMP act inh | MT1-MMP act inh RFP | CSC inhib | PABP polyA inh | HIV Env fusion | Yeast UUG start | Rce1 inh | eIF4H FP inh | others
COC(=O)c1ccc2c(c1)NC(=O)C(N1CCOCC1)S2 (stereo not drawn) | 3 | 0 | -3 | -4 | -38 | -12 | i | 2
Nc1ncn(-c2ncc(C(F)(F)F)cc2Cl)n1 | 1 | 4 | -5 | -15 | 0 | x | i | -19
C=CCn1c(SCC(=O)NCC2CCCO2)nnc1-c1ccccc1 (stereo not drawn) | 4 | 6 | -1 | -10 | -11 | -14 | x | -7
O=C1C(=O)N(C/C=C/c2ccccc2)c2ccccc21 | 2 | 3 | 18 | 43 | -16 | -7 | + | -8
CC(=O)N[C@@H](Cc1c[nH]c2ccccc12)C(=O)NCc1ccccc1 | 3 | 3 | 5 | 2 | 15 | -13 | i | 4
CC1Sc2ccc(C(=O)NCc3cccc(C(F)(F)F)c3)cc2NC1=O (stereo not drawn) | 4 | -2 | x | x | -15 | -16 | x | x
COc1ccc2oc(C(=O)N(C)Cc3ccc(OC(F)F)cc3)c(C)c2c1 | 3 | 5 | 10 | -4 | x | -10 | i | -7
N#CC1(NC(=O)COC(=O)c2nc(Cl)c(Cl)c(N)c2Cl)CCCCC1 | 3 | 4 | 1 | x | -15 | -10 | i | x
COc1ccc(C2=CSC3=C(C(=O)c4cccc(S(=O)(=O)N(C)C)c4)CCN23)cc1 | -8 | -2 | 8 | 33 | -66 | -2 | i | 15
